Rango complex inh: prevents formation of the Rango-importin beta complex. Potency, µM (top dose mostly 92.2 µM), inactives show at the highest dose inhibition of complex formation. Q14974. Rango CFP/YFP FRET sensor + importin beta, 45 min. 340,000 compounds, 0.031% hits; active = rising FRET ratio curve, often small or poorly fitted; inconclusive = mostly compound fluorescence or quenching in the first reads; inactive = flat curves in all reads;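 further: potency means the concentration at half of the fitted maximal effect; 0% = DMSO wells and 100% = buffer wells lacking importin beta; nearly all actives have a fitted effect of over 15% in size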
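FRET biosensor (snurportin 1 IBB flanked by EYFP and cerulean), 50 nM, with compound 5 min, then 0.125 microM importin beta in PBS, 1 mM DTT, 0.02% Tween-20, 0.1% BSA. CFP/YFP ratio read after 45 min at room temperature; pre-read flags interference.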
miR-21 reporter: raises the signal of a miR-21 reporter; HeLa miR-21 FLuc reporter, luciferase, 48 h; AID 2288; Potency, µM (titrated, usually from 38.3 µM), for the others: at the top dose reporter change, positive = more light; 340,000 tested, under 10 active; active = well fitted rising curve with a large enough effect; inconclusive = small, poorly fitted or top-dose-only effect; inactive = no such curve, though single readings can be large or run the other way;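 further: % of control where 0% means no effect; miR-21 action dims this reporter so a rising signal means less miR-21 action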
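HeLa cells endogenously expressing miR-21, stably carrying CMV-driven firefly luciferase with a downstream miR-21 binding site, 2000 cells/well. Titrations up to approximately 40 uM, 48 hours; luciferase luminescence read.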
GLA inh pH 4.5: alpha-galactosidase A (human) inhibition, pH 4.5; P06280; purified enzyme, 4-MU-alpha-Gal fluorescence, pH 4.5; activity change, negative = inhibition, % at 105 µM; 230,000 tested, under 10 active; AID 1467; inconclusive = small, poorly fitted or top-dose-only inhibition, or a rising curve; inactive = flat fitted curve, though single readings scatter; no compound was filed as active;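 further: 0% = full activity with enzyme and -100% = basal without enzyme; dose as in the result columns while the protocol names 77 µM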
Target sequence (P06280 whole entry, looked up): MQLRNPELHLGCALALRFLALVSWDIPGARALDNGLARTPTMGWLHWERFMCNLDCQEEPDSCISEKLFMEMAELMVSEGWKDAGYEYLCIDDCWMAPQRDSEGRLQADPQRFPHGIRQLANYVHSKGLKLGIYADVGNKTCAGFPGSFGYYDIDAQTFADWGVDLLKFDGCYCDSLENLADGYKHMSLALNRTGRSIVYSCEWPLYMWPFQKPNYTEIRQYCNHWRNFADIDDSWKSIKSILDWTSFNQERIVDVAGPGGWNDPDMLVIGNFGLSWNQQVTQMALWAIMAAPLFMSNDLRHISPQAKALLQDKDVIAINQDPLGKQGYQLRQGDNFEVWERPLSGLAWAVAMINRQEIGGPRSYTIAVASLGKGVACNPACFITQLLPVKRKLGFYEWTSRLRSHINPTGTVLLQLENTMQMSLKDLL
Rango release inh: prevents RanGTP from dissociating the Rango-importin beta complex; O95149+P62826; Biochemical FRET Rango-importin beta, RanGTP-induced dissociation; Potency, µM (top dose mostly 46.1 µM), for the others: top-dose activity change, negative = inhibition; 340,000 compounds, 0.071% hits; AID 540253; active means falling FRET ratio curve, often poorly fitted, with flat reads before Ran was added; inconclusive means other falling curves, or compound fluorescence or quenching; inactive means flat or rising ratio curve;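 further: potency means the concentration at half of the fitted maximal effect; % of control where 0% means no effect; nearly all actives have a fitted effect of over 45% in size; -100% = wells without RanGTP and RCC1; the record marks most hits as doubtful in a second field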
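Rango FRET biosensor (snurportin-1 IBB flanked by N-terminal EYFP and C-terminal CFP10) at 0.1 uM, with 0.25 uM importin beta in PBS, 1mM DTT, 0.02% Tween-20, 0.1% BSA. 0.6 uM Ran, 2mM GTP and 0.2 uM RCC1 were then added for 45 min at room temperature. Inhibition read as loss of FRET rise.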
Starred values were filed as active, the others as inactive; ? = inconclusive; · = not tested or not shown; & = joins results of further samples. These rows are one share of the data, so the mix of outcomes need not match the whole.

item	compound	Rango complex inh	miR-21 reporter	GLA inh pH 4.5	Rango release inh
1	COc1cc2nc(CN3CCN(C(C)=O)CC3)[nH]c(=O)c2cc1OC	-2.4%	1.2%	0.6	3.7%
2	CN(CC(=O)Nc1cccc(F)c1)C(=O)CN1c2cccc3cccc(c23)S1(=O)=O	-1.3%	·	·	-3.9%
3	CCO[C@H]1OC(C(=O)N2CCN(C)CC2)=C[C@@H](C2CC2)[C@@H]1CCCO	-1.2%	-2.0%	-0.1	8.6%
4	CC1(C)CC(=O)C=C(NCc2ccco2)C1	-1.7%	0.8%	-12.6	-3.8%
5	Cc1csc2c(=O)sc(NC(=O)c3ccco3)nc12	?	-4.5%	-8.1	?
6	CCc1nc(NCCO)c(C#N)c2c1CSC(C)(C)C2	?	3.5%	-4.0	9.5%
7	COc1ccccc1NC(=O)Nc1nnc(Cc2ccccc2F)s1	-0.1%	-8.5%	·	-2.2%
8	COc1ccc(/C=C/C(=O)NCC2COc3ccccc3O2)c(OC)c1 (stereo not given)	?	-23.8%	0.9	-14.8%
9	Cc1cc(C)cc(N(CC(=O)NC2CCCCCC2)S(=O)(=O)c2c(C)[nH]c(=O)[nH]c2=O)c1	-1.0%	-3.1%	-3.4	1.6%
10	COCCN(C(=O)CSc1ncn[nH]1)c1c(N)n(Cc2ccccc2)c(=O)[nH]c1=O	-2.4%	·	·	9.5%
11	OCC[C@@H]1C[C@H](O)[C@@H](O)[C@]2(Cc3ccccc3CCO2)O1	-0.7%	1.6%	·	-7.2%
12	C=CCOc1c(Br)cc(CNn2c(C)n[nH]c2=S)cc1OC	1.1%	-5.6%	·	1.5%
13	O=C(CSC1=NCCS1)Nc1ccc(F)cc1	0.5%	-4.2%	-10.2	-13.3%
14	Cc1ccccc1OCC(=O)OCC(=O)c1ccc(OC(=O)c2ccccc2)cc1	-2.9%	-4.5%	-10.6	-1.7%
15	CN(C)Cc1c(O)ccc2ccccc12	-3.3%	-17.2%	4.5	5.3%
16	CSC1=NCCN1C(=O)c1c(-c2c(F)cccc2Cl)noc1C	?	0.2%	2.1	12.4%
17	Cc1ccc(SCCC(=O)N2CCN(S(=O)(=O)c3ccccc3)CC2)cc1	-2.5%	·	·	5.7%
18	CC(=O)Nc1ccc(NS(=O)(=O)c2ccc(CN3C(=O)c4cccnc4C3=O)cc2)cc1	5.5%	1.9%	·	-1.6%
19	O=S(=O)(c1ccccc1)N1CCN(C(=S)NC2CCCC2)CC1	-0.8%	-3.2%	·	-7.9%
20	CC1CCc2c(ccc3ccccc23)C1=O (stereo not given)	1.9%	·	·	-4.4%
21	O=C1/C(=C\c2cccnc2)SC(=S)N1c1ccc(F)cc1	?	1.2%	-1.7	-9.3%
22	CC(C)CN(C(=O)/C=C/c1nc2ccccc2s1)C1CCS(=O)(=O)C1 (stereo not given)	-0.1%	·	·	14.5%
23	O=C(CSc1nnc(CNc2ccc(F)cc2)n1Cc1ccco1)N1CCOCC1	-4.0%	-1.4%	-19.8	-5.1%
24	CCOCc1c(C(=O)N2CCN(Cc3ccc(Br)s3)CC2)oc2ccccc12	-0.6%	·	·	0.1%
25	CCN(CC)c1ccc(S(=O)(=O)N2CCOCC2)cc1NC(=O)COC(=O)/C=C/c1ccc(C)o1	0.3%	·	·	9.1%
26	Cc1c(C)[n+](=O)c2c(n1[O-])C(Br)CCC2Br (stereo not given)	1.9%	-1.7%	2.2	2.8%
27	COc1ccc(N2CCN(Cc3oc(CO)cc(=O)c3O)CC2)cc1	-0.6%	-2.2%	-6.0	1.7%
28	CCCCN1C(=O)/C(=C2/Sc3ccccc3N2C)S/C1=N\c1ncn[nH]1	?	-10.4%	5.9	?
29	CC(CN1C(C)CCCC1C)OC(=O)c1ccccc1Cl (stereo not given)	0.3%	-1.2%	6.3	2.5%
30	O=c1cc(O)n(Cc2ccc(F)cc2)c(=O)[nH]1	-3.7%	1.6%	·	-2.8%
31	Cc1onc(-c2ccccc2Cl)c1C(=O)OCN1C(=O)c2ccccc2C1=O	-1.3%	-5.6%	4.0	17.8%
32	C#Cc1ccc([C@@H]2C=C(C(=O)O)O[C@H](OCC)[C@H]2CCCO)cc1	?	·	·	-22.6%
33	CC(C)OC(=O)CCc1nc2ccccc2[nH]c1=O	3.5%	-5.7%	-3.6	-2.7%
34	CCCCCn1c(SCCN2CCOCC2)nc2c1c(=O)[nH]c(=O)n2C	2.5%	-3.0%	?	-0.2%
35	COCCC(C(=O)Oc1c(C(C)(C)C)cc(C)cc1C(C)(C)C)c1ccccc1 (stereo not given)	-0.6%	·	·	-6.3%
36	Cc1cc(C)cc(NC(=O)CN2CCN(CCN=CC3=C(O)CC(C)(C)CC3=O)CC2)c1	2.8%	-9.5%	0.1	-2.5%
37	CC(/C=N\NC(=O)c1ccc2c(c1)OCO2)c1ccccc1 (stereo not given)	0.2%	-13.3%	·	-3.5%
38	CCCCN(CCCNC(=O)c1ccc2nc(N3CCOCC3)sc2c1)Cc1ccccc1	-0.4%	7.6%	-3.0	-16.5%
39	CCN(CC)CCn1c2c(c(SCC(=O)Nc3nc(C)cs3)nc1=O)CCC2	-4.0%	·	·	51.3%
40	CN(C(=O)Cc1c(C(=O)O)n(C)c2ccccc12)c1ccc(Cl)cc1	-3.3%	-1.0%	·	3.1%

The final three compounds of the part before lead into the next.
item	compound	Rango complex inh	miR-21 reporter	GLA inh pH 4.5	Rango release inh
38	CCCCN(CCCNC(=O)c1ccc2nc(N3CCOCC3)sc2c1)Cc1ccccc1	-0.4%	7.6%	-3.0	-16.5%
39	CCN(CC)CCn1c2c(c(SCC(=O)Nc3nc(C)cs3)nc1=O)CCC2	-4.0%	·	·	51.3%
40	CN(C(=O)Cc1c(C(=O)O)n(C)c2ccccc12)c1ccc(Cl)cc1	-3.3%	-1.0%	·	3.1%
41	Cc1cccc(-n2cccc2)c1C#N	1.5%	-0.7%	3.6	6.0%
42	CC(C)(C)Cc1nnc(NC(=O)CN2C(=O)c3ccccc3C2=O)s1	0.1%	-0.6%	3.4	2.9%
43	CCc1nccn1CCC(=O)N1CCCC(Nc2ccc(F)cc2)C1 (stereo not given)	-1.3%	-1.4%	·	-11.1%
44	O=c1[nH]cnc2c1c(-c1ccccc1)cn2-c1ccc(Br)cc1	0.0%	-5.6%	6.1	-0.3%
45	Cc1ccccc1NC(=S)N(C)Cc1cccs1	2.4%	-2.6%	-0.3	-8.3%
46	CC1CN(C(=O)COC(=O)c2cc(Cl)ccc2[N+](=O)[O-])CC(C)O1 (stereo not given)	2.9%	3.6%	·	2.6%
47	COc1ccc2c(c1)OC1=C(C(=O)CCC1)C2C1=C(O)CCCC1=O (stereo not given)	0.5%	-3.3%	8.3	-4.4%
48	N#Cc1cccc(NC(=O)COC(=O)c2cccc(N3C(=O)c4ccccc4C3=O)c2)c1	5.1%	-11.6%	-1.6	-0.4%
49	CN(CC(=O)Nc1cccc(F)c1)C(=O)c1cn(-c2ccccc2)nc1-c1ccc(Cl)cc1	1.3%	·	·	-3.9%
50	COC(=O)C1CC(O)CN1S(=O)(=O)c1ccc2ccccc2c1 (stereo not given)	-0.5%	·	·	4.9%
51	C=C(C)CSc1cc(C)c(C#N)c2nc3ccccc3n12	?	-9.6%	3.9	?
52	CSc1ccc(S(=O)(=O)N(CC(=O)NCc2ccccn2)c2ccc(C)cc2)cc1	7.8%	-1.3%	·	31.9%
53	COc1ccccc1C(=O)Nc1ccccc1C(=O)N1CCCC1	-3.2%	1.7%	-2.5	-2.0%
54	COc1cc(OC)cc(C(=O)Nc2ccccc2S(=O)(=O)N2CCCC2OC(C)=O)c1 (stereo not given)	0.3%	-4.0%	·	-8.1%
55	Cn1c(=O)c2c(nc(SCc3nc(N)nc(N4CCCCC4)n3)n2C)n(C)c1=O	-1.1%	3.5%	2.5	8.8%
56	Cn1c(CC(=O)NNC(=O)c2ccc(Cl)nc2)nc2ccccc21	-1.8%	·	·	0.3%
57	CCn1cnc2sc(C)c(C)c2c1=O	·	-14.8%	2.8	·
58	COc1ccc(CCNC(=O)c2cc(-c3ccc(C)c(C)c3O)n[nH]2)cc1OC	2.3%	11.1%	0.2	-9.9%
59	COC(=O)c1ccccc1NC(=O)C1CC(c2ccc(F)cc2)=NO1 (stereo not given)	-5.4%	-14.7%	-10.4	6.7%
60	COc1ccc(NC(=O)c2ccc3c(c2)S(=O)(=O)c2ccccc2C3=O)cc1	-2.0%	·	·	-10.0%
61	CCCC(=O)Nc1ncnc2c1ncn2[C@@H]1O[C@@H]2COP(=O)(O)O[C@H]2[C@H]1OC(=O)CCC	0.6%&0.2%	-47.3%	0.2&-0.9	-14.8%&7.9%
62	CC(NS(=O)(=O)c1ccc2c(c1)C(=O)c1cc(S(=O)(=O)NC(C)C(=O)O)ccc1-2)C(=O)O (stereo not given)	?	-8.9%	·	-11.1%
63	CCN(C[C@H]1N[C@@](Cc2ccccc2)(C(=O)OC)[C@H]2C(=O)N(Cc3ccccc3)C(=O)[C@@H]12)S(=O)(=O)c1ccc(C(F)(F)F)cc1	0.1%	·	·	-2.3%
64	COc1ccc(C(=O)NCCS(=O)(=O)N2CCOCC2)cc1	-4.3%	·	·	13.8%
65	CCOc1ccc2nc(SCC(=O)Nc3ccc4c(c3)OCCO4)[nH]c2c1	-1.6%	-13.8%	1.8	1.5%
66	CCn1cc(/C=C(\NC(=O)c2ccccc2OC)C(=O)NCCCN2CCOCC2)c2ccccc21	-0.7%	3.6%	·	-3.8%
67	COc1cc([N+](=O)[O-])cc(/C=N/NC(=O)c2cc(-c3ccccc3)nc3ccccc23)c1O	?	-0.1%	-9.3	0.8%
68	O=C(Cn1cc2c(n1)CCCC2)Nc1ccccc1Cl	-0.3%	-14.9%	10.0	-5.5%
69	COC(=O)c1ccccc1NC(=O)CSc1nc2cccnc2n1C	3.7%	-11.2%	-5.0	7.6%
70	COc1cccc(C2C(C#N)=C(N)Oc3cc(C)[nH]c(=O)c32)c1OC (stereo not given)	-0.4%	-3.7%	-6.6	-14.0%
71	C=CCn1c(Cc2cccs2)nnc1SCC(=O)Nc1ccc(C(=O)OCC)cc1	0.1%	2.6%	4.7	0.6%
72	COc1ccc(CNC(=O)C(=O)NCCC2CCCCN2S(=O)(=O)c2cccs2)cc1 (stereo not given)	1.5%	·	·	0.2%
73	CCSc1nnc(NC(=O)c2cc(C)oc2C)s1	13.4%	-48.5%	1.2	10.3%
74	Cc1nn(Cc2c(F)cccc2Cl)c(C)c1NC(=O)C1CC1	-2.1%	-9.8%	-6.0	-0.3%
75	CC(C(=O)NC1CCS(=O)(=O)C1)N1C(=O)/C(=C/c2ccc(Cl)cc2)SC1=S (stereo not given)	-1.5%	-5.3%	·	-2.2%
76	Cc1ccc2[nH]c(=O)c3cc(C(=O)N(C)c4ccc(C)c(C)c4)sc3c2c1	0.4%	-3.1%	3.7	1.4%
77	C/C(=N\Nc1ccc(F)cc1F)c1ccc(N2CCOCC2)cc1	4.4%	-21.5%	-0.8	-26.1%
78	CC(C)(C)SCCSC1=CC(=O)CC(c2ccccc2)C1 (stereo not given)	2.6%	-41.4%	·	-5.0%
79	Cc1cc(NC(=O)C2CCCCC2)n(-c2nc3ccccc3[nH]2)n1	-5.4%	17.6%	-11.1	?
80	CCOc1ccc(Nc2ccc(N3C(=O)CCC3=O)cc2[N+](=O)[O-])cc1	0.7%	1.6%	-2.8	1.3%
81	O=C1CCN(CCCc2ccccc2)CCN1[C@H](CO)c1ccccc1	0.4%	-0.8%	·	-2.3%
82	Cc1cc(NC(=O)CSc2ncnc3sc4c(c23)CCC(C)C4)no1 (stereo not given)	·	1.4%	-1.7	·
83	O=c1c(-c2ccc(Cl)cc2)[n+]([O-])c2ccccc2n1O	?	-13.5%	-6.2	?
84	COc1ccc(N2C(=O)C3CCCN3C2c2ccc(C)cc2)cc1 (stereo not given)	?	-14.0%	2.9	15.7%

Screens as filed in PubChem BioAssay.
